# Cruzain inh noDet: blocks cruzain activity in detergent-free assay; purified cruzain, Z-FR-AMC fluorescence, no detergent; Potency, µM, for inactives: max response, negative = inhibition, most hits filed as inhibitors; 200,000 compounds, 2.3% hits; AID 1476; active means well fitted curve in the direction sought with a large enough effect; inconclusive means small, poorly fitted or top-dose-only effect, or another doubt; inactive means no such curve, though single readings can be large; an effect the other way counts as inactive or inconclusive;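 further: plate controls were enzyme without inhibitor for no effect and buffer without enzyme for full effect; nearly all actives have a fitted effect of over 40% in size; top concentration of the series not given in the record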
# Target sequence (P25779 123-467 limits assumed): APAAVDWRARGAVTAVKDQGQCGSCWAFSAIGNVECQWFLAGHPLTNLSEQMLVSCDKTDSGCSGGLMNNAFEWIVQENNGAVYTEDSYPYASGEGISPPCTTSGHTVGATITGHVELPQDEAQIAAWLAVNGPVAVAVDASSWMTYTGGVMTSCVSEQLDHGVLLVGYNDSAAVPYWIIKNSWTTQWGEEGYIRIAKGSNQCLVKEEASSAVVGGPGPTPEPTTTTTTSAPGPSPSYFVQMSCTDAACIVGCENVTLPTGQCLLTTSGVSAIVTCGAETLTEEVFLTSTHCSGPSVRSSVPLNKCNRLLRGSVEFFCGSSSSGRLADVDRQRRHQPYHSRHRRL
#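 Purified cruzain at 1.5 nM, pre-incubated 15 min with compound at room temperature in 100 mM sodium acetate pH 5.5, 5 mM DTT, 0.00005% Triton X-100. Reaction started with 2 uM Z-FR-AMC; AMC fluorescence increase over 60 s gives rate.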
# NS1 function inh: inhibitors of influenza NS1 protein function; S. cerevisiae slowed by influenza A NS1, growth recovery by OD600; Potency, µM (titrated, usually from 46.1 µM), without a hit: at the top dose activity, positive = more growth; 270,000 compounds, 0.4% hits; AID 2326; further: actives are rising curves; nearly all actives have a fitted effect of over 50% in size
#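 OD600 was taken as the measure of yeast growth restored by compound in an NS1-expressing S. cerevisiae strain. Cells had been washed out of glucose medium and diluted 1:100 into galactose -URA medium, pH 6.0.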
# SARS PLP yeast: blocks SARS-CoV papain-like protease in a yeast assay; S. cerevisiae expressing SARS-CoV PLpro, growth rescue; control for the full effect not named in the record; Potency, µM (doses to about 32.9 µM), for inactives: at the highest dose activity, positive = growth rescue; 330,000 compounds, 0.19% hits; AID 485353; further: 0% is about no effect; nearly all actives have a fitted effect of over 55% in size; growth read by luminescence after 48 h
# LASV entry inh: blocks Lassa virus binding to or entry into cells; AID 540256; Lassa virus pseudotype entry inhibition, cell reporter; control for the full effect not named in the record; Potency, µM (top dose mostly 37.9 µM), for the others: top-dose activity change, negative = inhibition, hits mostly inhibitors; 300,000 compounds, 1.2% hits; active means well fitted inhibition curve with a large enough effect; inconclusive means small, poorly fitted or top-dose-only effect, or effect the other way; inactive means flat fitted curve, though single readings scatter; tested in HEK293 cells; further: on the % scale 0 is the no-effect control and ±100 the full control effect; nearly all actives have a fitted effect of over 50% in size; luciferase read-out
# Cruzain Triton: inhibitors of Trypanosoma cruzi cruzain with detergent. Potency, µM, for the others: max response, negative = inhibition, most hits filed as inhibitors. purified cruzain, Z-FR-AMC fluorescence, 0.01% Triton. 200,000 compounds, 0.43% hits. AID 1478. P25779; active means well fitted curve in the direction sought with a large enough effect; inconclusive means small, poorly fitted or top-dose-only effect, or another doubt; inactive means no such curve, though single readings can be large; an effect the other way counts as inactive or inconclusive;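 further: plate controls were neutral wells for no effect and buffer without enzyme for full effect; nearly all actives have a fitted effect of over 40% in size; top concentration of the series not given in the record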
#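 Sodium acetate buffer (100 mM, pH 5.5) containing 5 mM DTT and 0.01% Triton X-100 hosted 1.5 nM cruzain and test compound for 15 min at room temperature. Cleavage of 2 uM Z-FR-AMC was then tracked by fluorescence.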
# Marburg entry inh: inhibitors of Marburg virus binding or cell entry; Marburg virus pseudotyped entry inhibition, cell reporter; control for the full effect not named in the record; about a third of the inactives were read at about 46 µM; Potency, µM (series often up to 37.8 µM), without a hit: at the top dose activity change, negative = inhibition, most hits filed as inhibitors; 300,000 compounds, 1.8% hits; active = well fitted inhibition curve with a large enough effect; inconclusive = small, poorly fitted or top-dose-only effect, or effect the other way; inactive = flat fitted curve, though single readings scatter; tested in HEK293 cells; about a fifth of its hits are not listed in these tables; further: on the % scale 0 is the no-effect control and ±100 the full control effect; luciferase read-out
# RE007 growth inh: less growth of the S. pombe RE007 Vpr strain | S. pombe RE007 Vpr strain, BacTiter-Glo ATP luminescence, 24 h; control for the full effect not named in the record | Potency, µM (series often up to 92.2 µM), for inactives: top-dose activity change, negative = less growth | 360,000 compounds, 0.21% hits | AID 651644; active = well fitted falling curve with a large enough effect; inconclusive = small, poorly fitted or top-dose-only effect; inactive = no such curve, though single readings can be large or run the other way;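 further: on the % scale 0 is the no-effect control and ±100 the full control effect; nearly all actives have a fitted effect of over 50% in size; the assay follows cell death caused by Vpr and the record does not say whether a fall means rescue or toxicity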
#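 Fission yeast strain RE007, carrying one chromosomally integrated HIV-1 vpr copy, was seeded at OD 0.01 in PMG+AL medium with 23 nL pinned compound. After 24 h at 30 °C and 99% humidity, viability was read by BacTiter-Glo luminescence.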
# StopGo reporter: FMDV 2A StopGo reporter, luciferase signal; Potency, µM (doses to about 57.9 µM), for inactives: at the top dose signal change, negative = less light; 410,000 compounds, 1.2% hits; AID 1159524; human cells with a luciferase reporter of 2A StopGo recoding; control for the full effect not named in the record; active = well fitted falling curve with a large enough effect; inconclusive = small, poorly fitted or top-dose-only effect; inactive = no such curve, though single readings can be large or run the other way; tested in HEK293T cells; further: on the % scale 0 is the no-effect control and ±100 the full control effect; nearly all actives have a fitted effect of over 45% in size; luciferase light after 4 h
# An asterisk follows results filed as active; ? = inconclusive; . = no result given; & = joins results of further samples; [ ] = remark or other dose. Unless noted, the call rests on the fitted dose curve; in most records, active means well fitted rising curve with a large enough effect; inconclusive means small, poorly fitted or top-dose-only effect; inactive means no such curve, though single readings can be large or run the other way. Potency means the concentration at half of the fitted maximal effect. This is a random part of the collection, and some 4.7% of all compounds hit somewhere here.
SMILES,Cruzain inh noDet,NS1 function inh,SARS PLP yeast,LASV entry inh,Cruzain Triton,Marburg entry inh,RE007 growth inh,StopGo reporter
CCCCc1nc(SCC(=O)N2CCCCC2)c2c(=O)n(C)c(=O)n(C)c2n1,.,.,6%,0%,.,?,8%,?
CC(C)(C)NC(=O)Cn1c(SCC(=O)NC2CCCCC2)nc2ccccc21,-4%,7%,-1%,8%,-0.6%,-2%,-6%,2%
COc1ccc(C(=O)N/N=C/c2ccc(OC)c(CN3CCc4cc(OC)c(OC)cc4C3C)c2)cc1 (stereo unspecified),.,.,-2%,-7%,.,?,-7%,-21%
COc1cc(NC(=O)C2CCN(S(=O)(=O)c3ccc(Cl)cc3)CC2)ccc1-n1cnnn1,2%,-31%,4%,6%,-3.1%,1%&-12%,8%,.
C=CCn1c(SCC(=O)c2ccc(Cl)cc2)nnc1-c1ccc2c(c1)OCO2,-9%,13%,5%,?,-7.4%,?,1%,-15%
CC(=O)Oc1ccc(N(C(C)=O)S(=O)(=O)c2ccc3ccccc3c2)cc1,.,0%,0%,.,.,.,-17%,10%
CCC1=Nc2cc(C(=O)NCc3ccco3)ccc2Sc2ccc(C)cc21,-18%,17%,-51%,?,-8.5%,-21%,-11%,-22%
CC(C)CCc1c(O)nc(SCC(C)C)[nH]c1=O,.,-2%,1%,30%,.,13%[46.1 µM],-6%,-3%
CSc1ccc(S(=O)(=O)NC2CC3CCC2C3)cc1 (stereo unspecified),.,-116%,-13%,.,.,.,8%,43%[activator]
Cc1cc(N2CCOCC2)nc2ccc(NC(=S)N3CCN(Cc4ccccc4)CC3)cc12,.,.,-1%,-10%,.,?,3%,-19%
OCCNc1nc(SCc2ccccc2)nc2sc3c(c12)CCC3,-2%,-6%,-32%,23%,-4.7%,?,4%,-3%
CCOC(=O)c1[nH]c(C)c(CCC(=O)NCc2ccc(OCC)cc2)c1C,4%,.,.,-23%[46.1 µM],1.7%,.,.,-6%
COC(=O)Cc1ccc(NC(=S)N2CCN(c3ccc(F)cc3)CC2)cc1,-10%,2%,13%,-10%,-0.8%,8%,2%,-22%
O=S(=O)(O)c1cc(O)c(N=Nc2ccc(O)cc2O)c2ccccc12,.,.,.,-1%[46.1 µM],.,-1%[46.1 µM],?,28µM*
O=C(CNC(=O)C1CCCCC1)NCc1ccco1,.,-7%,0%,12%[46.1 µM],.,0%[46.1 µM],0%,50%[activator]
CCCN(C(=O)COC(=O)CSc1ccc(C(N)=O)cc1[N+](=O)[O-])C1CCS(=O)(=O)C1 (stereo unspecified),.,.,1%,17%,.,19%,8%,-17%
CCn1c(CNc2ccccc2Cl)nnc1SCC(=O)NCc1ccccc1,9%,-4%,-12%,-6%,2.5%,-12%,1%,.
CNC(=S)N(Cc1ccc(OC)cc1)Cc1cc2cccc(C)c2[nH]c1=O,.,-2%,0%,0%,.,-8%[46.1 µM],-13%,?
Cc1ccc(C(=O)NC(c2ccccc2)C(Cl)Cl)cc1 (stereo unspecified),3%,-12%,-2%,4%,-5.0%,?,-8%,0%
CCC(=O)OCc1cc(=O)oc2ccc3ccccc3c12,.,-24%,5%,-7%[46.1 µM],.,?,3%,1%
COC(=O)c1cc(S(=O)(=O)N2CCOCC2)ccc1Sc1ccccc1N,10%,-36%,7%,?,-4.6%,2%,2%,-19%
COc1ccccc1C1Nc2cccc3cccc(c23)N1,25µM*,-34%,-12%,-3%,-4.3%,-30%,7.1µM*,-4%
S=C(NCCCc1ccccc1)Nc1ccc(Br)cc1,.,-107%,-22%,?,.,?,-20%,54%[activator]
CC(C)c1ccc2[nH]c3nc(SCC(=O)NC4CC4)nnc3c2c1,.,-1%,3%,.,.,?,0%,-2%
CCOc1ccccc1CNC(=O)c1ccc(N2Cc3ccccc3Oc3ncccc32)s1,-6%,.,.,-3%[46.1 µM],-2.3%,.,.,-14%
Cn1c(=O)c2c(nc(CN3CCOCC3)n2Cc2ccccc2)n(C)c1=O,.,-6%,.,0%,.,14%&14%,-4%,0%
CCOc1ccc(NC(=O)Cn2c(=O)n(-c3cccc(OC)c3)c(=O)c3c4c(sc32)CCCC4)cc1,-3%,.,.,3%[46.1 µM],-2.5%,2%[46.1 µM],.,1%
Cc1ccccc1C(=O)N1CCN(c2ccc(N3CCOCC3)nn2)CC1,.,.,0%,?,.,-10%,-13%,-3%
Cc1nc(N)sc1N=Nc1c(C)n(C)n(-c2ccccc2)c1=O,.,10%,3%,11%[46.1 µM],.,-14%[46.1 µM],23%,6%
CCOC(=O)c1c(-c2ccccc2)oc2ccc(OCC(O)CN(C)C)cc12 (stereo unspecified),.,-6%,-5%,?,.,?,5%,-13%
Cc1cccc(OCC(=O)OC(C)C(=O)Nc2ccc(Cl)cn2)c1 (stereo unspecified),.,.,1%,5%,.,-3%[46.1 µM],-16%,-5%
CC(C#CCN1CCCCC1)OCCOCc1ccccc1 (stereo unspecified),2%,5%,-7%,-2%,3.9%,-4%,-10%,0%
CCOc1ccc(NC(=O)CSc2nnc(Cc3cccn3C)n2-c2ccc(F)cc2)cc1,?,-34%,19%,-1%,-5.4%,-1%,5%,-6%
O=c1[nH]c(SCCOc2ccccc2)nc2ccccc12,0%,0%,.,-15%,-1.7%,1%,-10%,28%
COc1ccc(-c2cc(N3CCCC3)n3ncnc3n2)cc1,-9%,-9%,-5%,-11%,1.5%,-22%[46.1 µM],-29%,?
CCn1c(=Nc2ccc(N3CCOCC3)cc2)ccc2ccccc21,3%,-6%,5%,-2%,-4.7%,?,7%,-5%
CC(=O)CCC(=O)N1CCC(n2nccc2NC(=O)c2ccccc2C)CC1,.,17%,4%,16%,.,15%,2%,-21%
Cc1ccc(Sc2cnn(-c3ccccc3)c(=O)c2Cl)cc1,-6%,0%,-14%,?,-2.4%,?,-3%,-4%
CS(=O)(=O)N1CCN(c2ccccc2NC(=O)c2cccs2)CC1,-12%,1%,0%,7%,9.1%,6%,1%,-20%
COc1ccc(Cl)cc1NC(=S)NCCO,.,5%,0%,6%[46.1 µM],.,1%[46.1 µM],2%,2%
COc1ccccc1C(CNC(=O)c1cccc(S(=O)(=O)N2CCCc3ccccc32)c1)N(C)C (stereo unspecified),.,.,.,?,.,?,2%,4%
CCCCOc1ccc(C(=O)NCC(=O)NCC(c2ccc(F)cc2)N2CCOCC2)cc1 (stereo unspecified),.,.,2%,?,.,6%,19%,7%
CCC(C)(C(=O)NC1CCCC1)N(C(=O)c1ccccn1)c1ccccc1 (stereo unspecified),4%,-13%,-5%,1%,4.0%,-8%,5%,0%
OCC1(Cc2ccc(Cl)cc2)CCN(Cc2ccc3nsnc3c2)CC1,.,-8%,0%,20%[46.1 µM],.,?,-15%,-28%
O=C(CSc1nnc(-c2cccs2)o1)Oc1ccc(Cl)cc1,-12%,.,.,?,-3.3%,29%[46.1 µM],.,1%
COc1cc(/C=N/NC(=O)c2cc(-c3ccc4c(c3)OCO4)n[nH]2)ccc1O,-2%,8%,-4%,-2%,-8.1%,-1%[46.1 µM],-1%,-20%
CCN(Cc1ccccc1)S(=O)(=O)c1ccc2c(c1)CCCN2C(C)=O,12%,.,.,?,-2.9%,.,.,?
Cc1ccc(CSC2=Nc3ccccc3C3=NC(=O)CN23)cc1,.,?,0%,?,.,?,0%,-11%
Cc1cc(N2CCCC2)ccc1/C=C1\NC(=S)N(C)C1=O,.,1%,-1%,.,.,.,-5%,13%
CCOC(=O)N1N=C(c2ccc(OC)cc2)CC1(O)C(F)(F)F (stereo unspecified),.,3%,-2%,.,.,.,9%,19%

# The list continues:
SMILES,Cruzain inh noDet,NS1 function inh,SARS PLP yeast,LASV entry inh,Cruzain Triton,Marburg entry inh,RE007 growth inh,StopGo reporter
CCOc1ccc(OCC)c(Nc2cc(C)nc3ncnn23)c1,-5%,1%,5%,.,-0.9%,-4%,12%,10%
O=C(NCc1ccccc1Cl)C(=O)NCC1OCCN1S(=O)(=O)c1ccc(F)cc1 (stereo unspecified),.,-3%,-6%,4%,.,?,-10%,-15%
CCOc1cc2[nH]c(=S)n(CC3CCCN3CC)c(=O)c2cc1OCC (stereo unspecified),-12%,13%,6%,-5%,-3.5%,-34%,0%,-6%
O=C(CSC1=NCCS1)Nc1nc(-c2ccccc2)cs1,-13%,-63%,-8%,-5%,-0.5%,5%,-21%,17%
CC(C)NS(=O)(=O)c1ccc(NC(=O)Cc2cccs2)cc1,-4%,13%,19%,12%,-1.1%,?,8%,9%
COc1ccc(CCNC(=O)c2ccc(CN3CCC(Cc4ccccc4)CC3)cc2)cc1OC,4%,-4%,-17%,6%,-3.8%,?,-14%,?
Cn1c(=O)c2c(nc(CN3CCN(C(c4ccccc4)c4ccccc4)CC3)n2CCCO)n(C)c1=O,.,-10%,-1%,?,.,?,-2%,-19%
CCOc1cc(/C=C(/C#N)c2ccc(Cl)cc2)cc(Cl)c1OCC(=O)O,.,-3%,-1%,.,.,.,11%,8.9µM*
CSCC[C@H](NC(=O)c1cccs1)c1nnc2ccccn12,.,-12%,4%,.,.,.,-18%,-2%
CCN(CC)CCN(CC(=O)N(C1CCCCC1)C1CCCCC1)C(=O)c1cccnc1,.,-3%,1%,7%[46.1 µM],.,?,-23%,-3%
N#C/C(=C/c1ccc(N2CCOCC2)o1)C(=O)NC1CCCCC1,.,-3%,1%,.,.,.,8%,7%
NC(=O)Nc1n[nH]c(-c2ccccc2)n1,-3%,0%&4%,2%,.,-0.1%,.,-3%,40%[activator]
COc1ccccc1CNC(=O)C(=O)NCC(c1ccco1)S(=O)(=O)c1ccc(C)cc1 (stereo unspecified),-3%,.,.,-18%[46.1 µM],-2.9%,.,.,?
COc1cccc(Nc2sc(C(=O)c3ccc4c(c3)OCO4)c(N)c2S(=O)(=O)c2ccccc2)c1,7.9µM*,.,.,-30%[46.1 µM],-1.3%,.,.,2%

# Compound activity as filed in PubChem.
